Vaccinia mCherry = vaccinia inhibition (mCherry reporter); Vaccinia virus mCherry reporter infection, fluorescence; about a quarter of the inactives have no number; Potency, µM (highest dose often 36.5 µM), inactives show top-dose activity change, negative = inhibition, most hits filed as inhibitors; 310,000 compounds, 0.63% hits; active = well fitted inhibition curve with a large enough effect; inconclusive = small, poorly fitted or top-dose-only effect; inactive = no such curve, though single readings can be large or run the other way; tested in A549 cells; further: nearly all actives have a fitted effect of over 35% in size; inactives centre near -10
Vaccinia Venus = vaccinia inhibition (Venus reporter) | Vaccinia virus Venus reporter expression, fluorescence | Potency, µM (highest dose often 36.5 µM), for the others: at the top dose activity change, negative = inhibition, hits mostly inhibitors | 330,000 compounds, 0.46% hits; active means well fitted inhibition curve with a large enough effect; inconclusive means small, poorly fitted or top-dose-only effect; inactive means no such curve, though single readings can be large or run the other way; tested in A549 cells; further: nearly all actives have a fitted effect of over 30% in size; inactives centre near -10
Numbers without * were called inactive; i = inactive; ? = inconclusive; nt = no result given; [ ] = another dose, or the depositor's remark. On the % scale 0 is the no-effect control and ±100 the full control effect; potency means the concentration at half of the fitted maximal effect.

structure	Vaccinia Venus	Vaccinia mCherry
O=C(CN1C(=O)COc2ccccc21)NCCN1CCC(Cc2ccccc2)CC1	-19.6%	-11.4%
Cc1ccc(NC(=O)CN2C(=O)C3CC=CCC3C2=O)cc1S(=O)(=O)N1CCOCC1 (stereo not given)	-13.3%	-4.6%
CCC/C=N/NC(=O)c1cccc(Br)c1	-10.4%	-27.5%
CC(C)NC(=O)CSCc1cccc(Br)c1	-14.1%	i
Cc1ccc(-n2nc(CO)c(C(=O)NCCCc3ccccc3)n2)cc1C	-3.2%	-3.6%
COCCNC(=O)c1ccc(-c2csc(C)n2)cc1	2.4%	i
CC(C)OCCCNC(=O)NC12CC3CC(CC(C3)C1)C2	-28.7%	-16.0%
CC1=NNC(=O)C1CCC(=O)N/N=C/c1c(Cl)cccc1Cl (stereo not given)	-3.4%	-4.8%
Cc1ccc(CNC(=O)CCCN2C(=O)CCn3nc(-c4cccn4C)cc32)cc1	4.8%	4.2%
Cc1ccccc1NC(=O)CC1SC(=NC2CCCCC2)NC1=O (stereo not given)	-16.3%	nt
COc1ccc(S(=O)(=O)Nc2cc3c4c(c2)C(C)C(=O)N4CCC3)cc1OC (stereo not given)	-15.4%	-9.3%
CC(C)CC(C(=O)NCc1ccc(F)cc1)N1Cc2ccccc2C1=O (stereo not given)	-1.9%	-2.5%
COc1ccc(-c2noc(-c3ccc(C)cc3Cl)n2)cc1OC	-19.9%	-9.6%
CCCCCCCCN1C(=O)[C@H](CC(=O)NCCCN2CCCC2=O)C[C@@]2(C(=O)OC)CCCCC=C12	-16.8%	-11.8%
Cc1cccc(C)c1NC(=O)N1CCCCCCC1	-6.0%	-10.9%
Cn1c(=O)[nH]c(=O)c2c1nc(Br)n2CCSc1nnnn1-c1ccccc1	-13.5%	-20.4%
CCN(CC)CCN1C(=O)c2oc3ccccc3c(=O)c2C1c1cccc(Br)c1 (stereo not given)	-19.2%	0.6%[1.46 µM]
COc1ccc(S(=O)(=O)N2CCC(C(=O)NCCOc3ccccc3F)CC2)cc1OC	-20.4%	-9.5%
CC(=O)Nc1ccc(S(=O)(=O)NC(CC(=O)NC2CCCCC2C)C(C)C)cc1 (stereo not given)	-5.2%	nt
CC(OC(=O)c1ccccc1Nc1ccc(SC(F)F)cc1)C(N)=O (stereo not given)	-28.5%	-16.8%

Next section.
structure	Vaccinia Venus	Vaccinia mCherry
COc1ccc(-c2nc3scc(CCNS(=O)(=O)c4ccc(Oc5ccccc5)cc4)n3n2)cc1OC	-9.4%	-14.6%
CCCCOc1cccc(C2c3c(-c4cc(C)ccc4O)n[nH]c3C(=O)N2CCOC)c1 (stereo not given)	-25.8%	-26.1%
Cc1c(C(=O)O)sc2nc(SCC(=O)Nc3ccc(S(=O)(=O)NC(C)(C)C)cc3)[nH]c(=O)c12	-14.6%	i
Cc1ccc(N=C2NC(=O)/C(=C\c3ccc(C)s3)S2)cc1	5.7%	i
Cc1ccc(CNC(=O)CCCNS(=O)(=O)c2cccc3nonc23)cc1	-22.6%	-20.2%
O=C(Nc1ccc(OC(F)(F)F)cc1)c1cnccn1	-17.8%	-2.5%
CCCn1c(=O)sc2cc(NC(=O)c3ccccc3Cl)ccc21	-3.2%	-12.0%
CC(C)CCNC1=CC(=O)CC(c2ccccc2)C1 (stereo not given)	-17.9%	i
Cn1cnc([N+](=O)[O-])c1N=C(N)N	-2.9%	-15.9%
COc1cc(OC)c(NC(=O)N2CCc3c([nH]c4ccccc34)C2c2ccccc2F)cc1Cl (stereo not given)	-13.1%	-13.9%
Cc1ccc(-n2[nH]c(C)c(C=Nc3ccc4[nH]c(=O)[nH]c4c3)c2=O)cc1	?	?
Nc1nc(-c2ccccc2)c(C(=O)Nc2ccccc2)s1	-6.6%	i
COc1ccc(NC(=O)c2cc(C3CC3)nc3c2c(C)nn3-c2ccccc2)cc1OC	-20.5%	-19.9%
COC(=O)c1cn(CC(=O)NC2CCCCCC2)c2ccccc12	-13.0%	nt
CC(C)(C)c1ccc(OCc2ccc(C(=O)N/N=C3\CC4CC=CC34)cc2)cc1 (stereo not given)	-10.0%	i
Cc1ccc(Cn2cccc2/C=N/NC(=S)Nc2ccc(C)cc2)cc1	-7.4%	-18.1%
O=C(c1c[nH]c2ccc(S(=O)(=O)N3CCC4(CC3)OCCO4)cc2c1=O)N1CCOCC1	-0.3%	-14.9%
Cc1ccc(C)c(C(=O)Nc2c(C(N)=O)oc3ccccc23)c1	-10.1%	-17.6%
COc1ccc(OCCNS(=O)(=O)Cc2ccccc2)cc1	11.7%	1.4%
Cc1nc(/C(N)=N/OC(=O)Cc2ccccc2)no1	0.3%	i

The final 4 entries of the section before open the next one.
structure	Vaccinia Venus	Vaccinia mCherry
O=C(c1c[nH]c2ccc(S(=O)(=O)N3CCC4(CC3)OCCO4)cc2c1=O)N1CCOCC1	-0.3%	-14.9%
Cc1ccc(C)c(C(=O)Nc2c(C(N)=O)oc3ccccc23)c1	-10.1%	-17.6%
COc1ccc(OCCNS(=O)(=O)Cc2ccccc2)cc1	11.7%	1.4%
Cc1nc(/C(N)=N/OC(=O)Cc2ccccc2)no1	0.3%	i
COc1ccc2cc(C(=O)Nc3ccc(S(N)(=O)=O)cc3)sc(=O)c2c1OC	2.7%	5.6%
CN1CCN(c2cccc3c2S(=O)(=O)N[C@H](Cc2ccccc2)CO3)CC1	-2.1%	1.9%
Cc1ccc(-c2n[nH]c(=O)c3ccccc23)c(C)c1	-22.1%	-27.9%
COc1ccc(S(=O)(=O)N2CCOCC2)cc1C(=O)N1CCCCC1	-11.1%	i
O=C(c1ccc(Br)cc1)c1sc(N2CCOCC2)nc1-c1ccccc1	-7.4%	-2.8%
COc1ccc(CCNc2ncnc3sc(C(=O)N(C)C)c(C)c23)cc1OC	-2.5%	-8.3%
Cc1cc2c(cc1S(=O)(=O)N1CCN(c3ccccc3)CC1)OCC(=O)N2	-13.4%	-3.2%
O=C(CNC(=O)c1ccc2c(c1)OCCO2)N/N=C/c1cccc(Br)c1	-3.9%	-10.0%
COc1ccc(S(=O)(=O)N2CCOC2CNC(=O)C(=O)NCc2ccccn2)cc1OC (stereo not given)	-11.6%	i
O=C1NC(c2ccccc2)N=C2Oc3ccccc3C=C12 (stereo not given)	-24.7%	?
CCOc1ccc(NC(=O)c2ccccn2)cc1	-5.4%	i
Cc1cc(C)cc(C(O)c2ncc(-c3ccccc3)[nH]2)c1 (stereo not given)	-8.7%	i
COC(=O)C1CCN(C(=O)COC(=O)c2ccc3[nH]c4c(c3c2)CCCC4)CC1	-4.3%	-12.5%
CCOC(=O)c1sc(N/N=C/c2cccc(C)c2)nc1C	7.2%	-8.6%
C/C(N)=C(/C#N)C(=O)COC(=O)C1CCN(C(=O)c2ccc(Cl)cc2)CC1	-6.6%	-13.5%
Cc1ccc(CN2CCN(/N=C/c3ccc(C(=O)O)cc3)CC2)c(C)c1	-11.6%	?
COc1ccc(-c2cc(C(F)(F)F)nc(SCC(=O)Nc3ccc4c(c3)OCO4)n2)cc1	-6.9%	i
CCc1nc(C)cn1S(=O)(=O)c1cc(F)ccc1OC	-7.6%	-0.8%
Nn1c(COc2cccc(Cl)c2)nc2ccccc2c1=O	-11.5%	-3.7%
Clc1ccc(Cn2nnc(-c3ccccc3)n2)cc1	-12.6%	i

(listing goes on)
structure	Vaccinia Venus	Vaccinia mCherry
Cc1nn(C)cc1C(C(=O)NC1CCCCC1)N(C(=O)c1cnccn1)c1ccc(Oc2ccccc2)cc1 (stereo not given)	-14.3%	i
Cc1ccc2c(c1)sc(-c1ccc(N(C)C)cc1)[n+]2C	?	?
CCOC1=C2[C@H](c3ccc(CC)cc3)N(S(=O)(=O)c3ccc(C)cc3)C[C@H]2C(C#N)(C#N)C(C#N)(C#N)C1	3.0%	i
COc1ccc(Nc2nc(N)c3cc(OC)c(OC)cc3n2)cc1	-8.8%[7.34 µM]	-15.7%[7.34 µM]
Cc1cc(C(c2ccc(O)cc2)c2cc(C)c(O)cc2C)c(C)cc1O	-16.1%	-7.7%
Cc1cc(O)c(C(=O)/C=C/c2cccc([N+](=O)[O-])c2)c(=O)o1	-10.8%	i
Cc1csc2nc(COC(=O)c3ccc(F)cc3)cc(=O)n12	-9.8%	2.0%
CCCc1cc(=O)[nH]c(SCC(=O)c2c(N)n(C)c(=O)n(C)c2=O)n1	-22.7%	nt
Cn1c(O)c(N=NC(=O)CNC(=O)/C=C/c2ccccc2)c2ccccc21	-17.4%[7.34 µM]	i[7.34 µM]
Cc1ccc(-c2nnn(CC(=O)N3CCC(C)CC3)n2)o1	-0.7%	-8.4%
C=CCNc1nc(N)c([N+](=O)[O-])c(NC2CCCCC2)n1	-24.8%	-11.6%
COc1cc(C(=S)N2CCN(c3cccc(Cl)c3)CC2)ccc1O	-19.1%	?
Cc1cccc(NC(=O)c2ccc(CNS(=O)(=O)c3ccc4c(c3)C(C)(C)C(=O)N4C)cc2)c1	-25.6%	-3.0%
CCCCN1C(=O)C(CC(=O)NC2CCCC2)CC(C(=O)N(C(C)C)C(C)C)=C1C (stereo not given)	-15.0%	-3.5%
O=C1N[C@@H](c2ccccc2)COC(=O)[C@@H](Cc2ccc(F)cc2)C/C=C\C[C@@H]1CC(=O)N(CCO)Cc1ccccc1	?	-23.6%
O=C(Nc1ccc2c(c1)OCO2)C1CC(=O)N(CCc2ccccc2)C1 (stereo not given)	-0.4%	5.6%
CCC(C)c1cc(S(=O)(=O)N2CCOCC2)ccc1OC (stereo not given)	-12.1%	nt
CCCCS(=O)(=O)c1nc(-c2ccc(Br)cc2)cc(-c2ccccc2)c1C#N	-8.9%	-11.6%
CC(C)CCNC(=O)C(c1cccs1)N(CC1CCCO1)C(=O)Cn1nnc2ccccc21 (stereo not given)	-17.0%	-21.0%[1.46 µM]
COc1ccc(CCNC(=O)CCCn2c(=O)c3ccccc3n(Cc3ccccc3C#N)c2=O)cc1OC	-15.5%	-18.1%

Remaining list, next part:
structure	Vaccinia Venus	Vaccinia mCherry
O=C(c1cccc(N2C(=O)C3C4C=CC(C4)C3C2=O)c1)N1CCN(c2ccc(F)cc2)CC1 (stereo not given)	-12.2%	-19.7%
Cc1ccc(C)c(S(=O)(=O)NCc2ccncc2)c1	-28.8%	-2.4%
COc1ccc(C)cc1NC(=O)C1CCN(S(=O)(=O)c2cccs2)CC1	8.8%	0.0%
CC(=O)C1CCC2C3CCC4=CC(=O)CCC4(C)C3(Br)C(=O)CC12C (stereo not given)	-20.1%	-25.6%
COc1ccc(C2=CC(c3ccc(OC)c(OC)c3)n3nnnc3N2)c(OC)c1 (stereo not given)	-13.3%	-12.8%
CC1(C)CC(=O)C2=C(C1)OC(N)=C(C#N)C2c1cc2c(cc1[N+](=O)[O-])OCO2 (stereo not given)	-18.4%	-25.2%
c1ccc2c(c1)NCCS2	-12.6%	-14.5%
OC(COCc1cccs1)CN1CCCCCC1 (stereo not given)	?	nt
CCCCCc1ccc(OCCCC[n+]2ccc(C)cc2)c(CCCCC)c1	?	?
COc1ccc2c(c1)OC[C@H]1[C@H]2N2C(=O)CN(Cc3ccc(F)cc3)C(=O)[C@@]2(C)[C@H]1c1ccccc1	-16.9%	-4.7%
COc1ccc(C(=O)N2CCN(c3ccc(C)cc3C)CC2)cc1OC	-13.1%	-28.9%
COc1ccc(OC(F)(F)F)cc1CC1(C)C(=O)Nc2cccc(Cl)c21 (stereo not given)	?	-15.3%
CCCCN1CC(=O)N2[C@H](c3ccc(OC)cc3)[C@@H]3C(=O)N(CC)C(=O)[C@@H]3[C@]2(C)C1=O	-7.2%	i
COCCCN(C(=O)CCOc1ccc(C(C)(C)C)cc1)c1c(N)n(Cc2ccccc2)c(=O)[nH]c1=O	-13.8%	-29.5%
COc1ccccc1N1CCN(C2CCCN(C(=O)c3ccoc3C)C2)CC1 (stereo not given)	-14.5%	i
COC(=O)c1ccccc1NC(=O)CSc1c2c(nc3ccc(Cl)cc13)CCCC2	-5.3%	-3.7%
COc1cccc(N2CC(NC(=O)/C=C\c3ccc4c(c3)OCO4)CC2=O)c1 (stereo not given)	-10.4%[7.34 µM]	-1.1%[7.34 µM]
O=C(N/N=C/c1cn(-c2cccs2)nc1-c1ccccc1)c1ccccc1Cl	-16.4%	-10.5%
CC(C)NC(=O)C(c1ccc(F)cc1)N(C(=O)CCC(=O)Nc1ccccn1)c1cccc(F)c1 (stereo not given)	-6.3%	-13.2%
CCOc1ccccc1OCC(=O)NN=C1CCCC(=O)C1	-15.4%	-0.3%
COc1cc(NC(=O)NC(C)(C(F)(F)F)C(F)(F)F)cc(OC)c1OC	-12.3%	-16.7%
COc1ccc(C)cc1NC(=O)NCCCCc1ccccc1	-6.0%	i

Whole records as entered above. Values in the order: Vaccinia Venus	Vaccinia mCherry
`COc1ccc2c(c1)OC[C@H]1[C@H]2N2C(=O)CN(Cc3ccc(F)cc3)C(=O)[C@@]2(C)[C@H]1c1ccccc1` in the list: -16.9%	-4.7%
`O=C(N/N=C/c1cn(-c2cccs2)nc1-c1ccccc1)c1ccccc1Cl` in the list: -16.4%	-10.5%
`COc1ccc(C2=CC(c3ccc(OC)c(OC)c3)n3nnnc3N2)c(OC)c1` (stereo not given) in the list: -13.3%	-12.8%
`O=C(c1cccc(N2C(=O)C3C4C=CC(C4)C3C2=O)c1)N1CCN(c2ccc(F)cc2)CC1` (stereo not given) in the list: -12.2%	-19.7%

Screening data as filed in PubChem BioAssay.
